High-throughput results from PubChem BioAssay.
NPR1 antag: Natriuretic polypeptide receptor (hNpr1) antagonism - Primary qHTS; Atrial natriuretic peptide receptor 1 (Homo sapiens), P16066; HEK293 hNpr1 GloSensor cGMP, ANP-stimulated luminescence; Potency, µM (doses to about 46.3 µM), for inactives: top-dose activity change, negative = inhibition, actives largely listed as inhibitors; 1.6% of 76,000 active; AID 1347048, 2019; active = well fitted inhibition curve with a large enough effect; inconclusive = small, poorly fitted or top-dose-only effect; inactive = no such curve, though single readings can be large or run the other way;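 note: nearly all actives have a fitted effect of over 60% in size; nearly all hits also lower the signal before the agonist is added; a reference antagonist and vehicle were the controls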
Target sequence (P16066 whole entry, looked up): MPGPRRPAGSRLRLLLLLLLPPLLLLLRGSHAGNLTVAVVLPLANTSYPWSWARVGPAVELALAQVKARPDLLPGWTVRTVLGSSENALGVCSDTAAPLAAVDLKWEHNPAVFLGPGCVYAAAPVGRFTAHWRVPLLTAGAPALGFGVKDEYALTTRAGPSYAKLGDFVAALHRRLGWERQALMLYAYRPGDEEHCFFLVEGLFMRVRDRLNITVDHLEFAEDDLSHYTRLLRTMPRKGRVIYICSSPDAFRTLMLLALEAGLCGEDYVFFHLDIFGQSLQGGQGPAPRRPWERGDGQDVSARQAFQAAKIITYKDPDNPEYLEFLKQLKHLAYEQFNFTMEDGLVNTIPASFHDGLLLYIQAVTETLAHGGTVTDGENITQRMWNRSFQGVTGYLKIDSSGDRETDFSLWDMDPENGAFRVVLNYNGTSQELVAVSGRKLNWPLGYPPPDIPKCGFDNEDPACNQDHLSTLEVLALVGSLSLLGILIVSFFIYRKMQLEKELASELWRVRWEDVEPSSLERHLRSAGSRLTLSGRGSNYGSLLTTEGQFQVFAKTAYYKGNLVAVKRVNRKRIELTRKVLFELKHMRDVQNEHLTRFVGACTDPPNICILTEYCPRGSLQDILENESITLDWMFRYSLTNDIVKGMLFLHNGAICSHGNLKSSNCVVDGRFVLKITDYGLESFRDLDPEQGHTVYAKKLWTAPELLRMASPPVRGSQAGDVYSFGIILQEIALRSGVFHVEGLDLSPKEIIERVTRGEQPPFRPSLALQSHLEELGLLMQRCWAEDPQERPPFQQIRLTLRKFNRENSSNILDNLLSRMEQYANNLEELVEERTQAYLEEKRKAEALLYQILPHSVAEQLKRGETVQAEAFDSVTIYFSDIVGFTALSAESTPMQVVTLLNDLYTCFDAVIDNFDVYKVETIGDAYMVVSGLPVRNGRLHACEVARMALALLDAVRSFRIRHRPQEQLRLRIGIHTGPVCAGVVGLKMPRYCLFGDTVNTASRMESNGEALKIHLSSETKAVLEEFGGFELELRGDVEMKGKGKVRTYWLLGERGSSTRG
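HEK293 cells stably expressing human Npr1 and cGMP GloSensor pGS-40F, loaded 2 h with 2% GloSensor reagent, given compound 30 min at room temperature. Luminescence read before and 20 min after 0.1 nM hNppA.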
Numbers without * were called inactive; ? = inconclusive; & = joins results of further samples; [ ] = dose if it differs, or a comment. % is set by controls: 0 for no effect and ±100 for the full control effect; potency is the fitted concentration of half-maximal effect.

SMILES	NPR1 antag
CN1C(=O)[C@H]2CN(Cc3ccc(F)c(Cl)c3)C[C@H]2C1=O	-6%
COCCN1C(=O)[C@H]2CN(Cc3cc(Cl)ccc3F)C[C@H]2C1=O	-2%
O=C(Nc1ccc(Cl)cc1)N1Cc2[nH]cnc2C[C@H]1c1nc(-c2ccc3ccccc3c2)no1	-2%
COc1ncccc1CNC[C@H]1Cn2c(-c3ccc(F)cc3)cnc2CO1	-17%[70.6 µM]
CC(=O)N1CCN(C2CCOC3(CCN(S(=O)(=O)c4c(C)noc4C)CC3)C2)CC1 (configuration not stated)	5%
O=C(Cn1ccc(=O)[nH]c1=O)N1CCC2(CCCN(C3CCCC3)C2=O)C1 (configuration not stated)	15%
CCn1nccc1C(=O)N1CCC2(CC1)C(OC)CN2c1ccc(C)cc1 (configuration not stated)	-8%
O=C1N(Cc2ccc(F)cc2)C[C@H]2CN(Cc3ccc(C(F)(F)F)cc3)CCN12	10µM*
CC(C)CC(=O)N1CCc2nnc([C@@H]3C[C@@H](O)CN3C)n2CC1	7%
Cc1cc(C)c(CNC(=O)c2nc(-c3cccc(O)c3)cc3c2ccn3C(C)C)c(=O)[nH]1	-15%[70.6 µM]
CNC(=O)N1CCC(C2CCN(C(=O)c3cccs3)C2)CC1 (configuration not stated)	-2%
C#CCNC(=O)CC[C@@H]1CNC(=O)[C@@H]2C[C@H](NC(=O)c3cccc(F)c3)CN12	-1%[70.6 µM]
CC(C)N1CCC(N2CCCC(N3CCN(c4cccc(C(F)(F)F)c4)CC3)C2)CC1 (configuration not stated)	6%
NC1CCc2n[nH]c(=O)n2CC1 (configuration not stated)	6%
CCOC(=O)C1=CN(CC(=O)Nc2cccc(Cl)c2)S(=O)(=O)N=C1C	0%
COC[C@@H]1CN(C(=O)c2cc(C)[nH]n2)C[C@H]1c1ccncc1	2%
Cc1ccccc1-n1nc(C)c(CCC(=O)NCC2CC2)c1Oc1ccccc1	-17%
COCCOc1ncccc1-c1noc([C@@H]2CCCN2Cc2ccc(C(=O)O)cc2)n1	-13%[70.6 µM]
CN1C(=O)[C@H]2CN(Cc3cc(F)ccc3F)C[C@H]2C1=O	-7%
CCn1cc(-c2ccc(OC)cc2)cc1C(=O)NC(C)c1cccnc1 (configuration not stated)	-16%
CC(=O)Nc1ccc(C2(C(=O)NCc3ccc(F)cc3)CCC2)cc1	-3%
COc1ccc(C(=O)N[C@@H]2CCC[C@@H]2C(=O)NCCCN2CCCc3ccccc32)cc1	2%
Cc1noc([C@@H]2CN(C(=O)CCc3c[nH]c4ccccc34)C[C@H]2CO)n1	3%
Cc1ccccc1C(=O)N1CCC(c2n[nH]c(=O)n2-c2ccccc2)CC1	-1%
Cc1ccc(-c2nnc(C3CN(C(=O)c4ccc(F)cc4F)CC34CCOCC4)o2)cc1 (configuration not stated)	2%

Ordered by SMILES length (lowest first): some entries from above.
SMILES	NPR1 antag
CN1C(=O)[C@H]2CN(Cc3cc(F)ccc3F)C[C@H]2C1=O	-7%
COCCN1C(=O)[C@H]2CN(Cc3cc(Cl)ccc3F)C[C@H]2C1=O	-2%
CC(C)N1CCC(N2CCCC(N3CCN(c4cccc(C(F)(F)F)c4)CC3)C2)CC1 (configuration not stated)	6%

Grouped by structure: the compounds so far with a CF3 group (2)
SMILES	NPR1 antag
O=C1N(Cc2ccc(F)cc2)C[C@H]2CN(Cc3ccc(C(F)(F)F)cc3)CCN12	10µM*
CC(C)N1CCC(N2CCCC(N3CCN(c4cccc(C(F)(F)F)c4)CC3)C2)CC1 (configuration not stated)	6%

The listing continues.
SMILES	NPR1 antag
CCCCN1C(=O)C(CC(=O)N2CCCCC2)Sc2ncccc21 (configuration not stated)	-8%
C1CNCC(c2nc(CCOCC3CCOCC3)no2)C1 (configuration not stated)	6%
Cc1noc(C)c1S(=O)(=O)N1[C@@H]2CC[C@H]1CC(NC(=O)c1ccc(F)cc1)C2 (some centres not stated)	3%
CC(=O)N1CCC(Cc2ncc(C)n2C2CC2)C1 (configuration not stated)	1%
CC(=O)N1CCCC2(C1)Nc1cccnc1NC2=NCc1ccccc1 (configuration not stated)	5%
CN(C)C[C@@H]1CN(C2CCOCC2)C[C@H]1NC(=O)C1CC=CCC1 (some centres not stated)	5%
CC(C)NC(=O)N1CCN2C(=O)c3cc(-c4ccccc4F)ccc3NC(=O)[C@H]2C1	-3%[70.6 µM]
COC[C@@H]1CN(S(=O)(=O)c2cn(C)cn2)C[C@H]1c1ccncc1	1%
COCCC(=O)N1CCCN(S(C)(=O)=O)C(c2ccccc2)CC(=O)NCC1 (configuration not stated)	11%
COc1ccc(CNC(=O)C[C@@H]2CCNC[C@@H]2Cc2cc(COc3ccccc3)on2)cc1	-24%
COCCN1CCOC[C@H]2CCN(C(=O)c3cnccn3)C[C@H]21	0%
COc1cccc(C(=O)N2CCCC(c3nn(-c4ccc(F)cc4)c(=O)[nH]3)C2)c1 (configuration not stated)	14%
O=C(Nc1ccc(F)cc1)C1CN(S(=O)(=O)c2cccnc2)CC12CCCCC2 (configuration not stated)	2%
Cn1ccc(NC(=O)c2ccc3c(c2)NC(C)(CCCCc2ccccc2)CO3)n1 (configuration not stated)	10µM*
Cc1nn2c(c1-c1ccccc1-c1ccccc1)N(C(=O)COc1ccccc1)CCC2	-26%[70.6 µM]
O=C(Nc1ccc(F)cc1F)N1CCOC[C@H](Oc2ccc(C(F)(F)F)cc2)C1	0%[70.6 µM]
O=C(NC[C@H]1OC[C@@H](NC2CCOCC2)[C@@H]1O)c1cccs1	-2%[70.6 µM]
CN(CC1CCOCC1)C(=O)Nc1ccccc1Cl	3%
Cc1cc(C(=O)N2CCCCCCNC(=O)[C@@H]3CCC[C@@H]32)nn1C	-1%
CCS[C@H]1CCN2C(=O)c3cc(-c4ccc(F)cc4F)ccc3NC(=O)[C@H]12	?
CCN(C(=O)CN1C(=O)NC(c2ccccc2Cl)C2=C1COC2=O)c1cccc(C)c1 (configuration not stated)	3%
CN(C)[C@@H]1[C@@H](NC(=O)Cn2cnc3ccsc3c2=O)[C@H]2CCO[C@H]21	-4%
CCN1CCN(C(=O)CC2CCCN(c3cnn(CC)c(=O)c3)C2)CC1 (configuration not stated)	9%
O=[S+]1([O-])NC2(CCCN(Cc3cccc4ccccc34)C2)CNc2ccccc21 (configuration not stated)	-16%
COC[C@@H]1[C@H](NC(=O)CN2CCN(c3cccc(C)c3)CC2)[C@@H]2CCO[C@H]12	4%
SMILES	NPR1 antag
O=C1[C@H]2CN(Cc3ccc(C(F)(F)F)cc3)C[C@H]2C(=O)N1Cc1ccc2c(c1)OCO2	?
COc1ccc(CCC(=O)NCc2cc3n(n2)CCN(C(=O)N(C)C)C3)cc1	-2%
CC(C)c1noc(-c2cccn3c(CNC(=O)c4ccco4)nnc23)n1	-2%
O=C(c1ccc(F)cc1)N1CCN(C(=O)c2nnn3c2COC(c2ccc(Cl)cc2)C3)CC1 (configuration not stated)	-26%
c1ccc(-c2noc(-c3nc(C4CC4)no3)n2)cc1	?
Cc1ccc(C(=O)N2CCC3(CC2)CNC(=O)c2ccccc2O3)cc1	13%
O=C(NCc1ccccc1Cl)C1CCN(C(=O)c2ncn3c2COC(c2ccccc2)C3)CC1 (configuration not stated)	-14%
COc1ccc(CNC(=O)N2CCC3(CC2)CC(N(C)Cc2ccccc2)CCO3)cc1 (configuration not stated)	-1%
Cc1ccc(S(=O)(=O)N2CCC(OC3CCN(Cc4ccccc4)CC3)CC2)c(C)c1	-16%
Cc1nc2c(s1)C[C@]1(C)CCC([C@H](C)C(=O)N3CCOCC3)[C@H](O)[C@H]1[C@@H]2C (some centres not stated)	2%[70.6 µM]
CCCNc1cc(N2CCC(CCC(=O)Nc3cc(C)ccc3OC)CC2)ncn1	?
Cc1ccc(CNC(=O)N(C)CC2CCOC2)cc1 (configuration not stated)	4%
Cc1noc(C)c1S(=O)(=O)N(C)C1CCCc2ccccc21 (configuration not stated)	14%[70.6 µM]
N#CC1CCN(C(=O)c2cc(Br)cn3ccnc23)CC1	-1%&7%[70.6 µM]
COc1cccc(NC(=O)Cn2c(-c3ccccc3)nc(C)cc2=O)c1	-4%
O=C(Nc1cccc(-c2nnc3n2CCCC3)c1)c1ccncc1	2%
COc1ccc2[nH]c3c(c2c1)CCN(C)C31CCN(C(=O)c2ccc3ncccc3c2)CC1	0%
CC(NC(=O)CCc1conc1-c1ccccc1)c1ccc(F)cc1 (configuration not stated)	-4%
Cc1nn(-c2ccccn2)c(C)c1[C@@H]1C=C[C@@H](NC(=O)CC(C)(C)CC(=O)O)C1	9%[70.6 µM]
COc1ccccc1OCc1cc(C(=O)N(C)CC2Cc3ccccc3O2)n[nH]1 (configuration not stated)	-8%
COc1ccc(CN2C[C@@H](F)[C@@H](OCc3nc4ccccc4o3)C2)cn1	0%[70.6 µM]
Cc1nc2n(c1C(=O)NCC1CC1)CCC(Nc1ccc(F)cc1)C2 (configuration not stated)	-2%[70.6 µM]
CC1CCN(C(=O)CN2C(=O)NC3(CCC(C(C)(C)C)CC3)C2=O)CC1 (configuration not stated)	4%
Cn1nccc1C(=O)NC1CCCN(c2cc(-c3ccc(F)cc3)[nH]n2)C1 (configuration not stated)	-10%
O=C(C1CC1)N1CCC2(CC1)CCN(CCc1ccccc1)c1ccccc1O2	9%

Taken from above:
Value of CC(NC(=O)CCc1conc1-c1ccccc1)c1ccc(F)cc1 (configuration not stated) under NPR1 antag: -4%
Value of O=C(Nc1ccc(F)cc1)C1CN(S(=O)(=O)c2cccnc2)CC12CCCCC2 (configuration not stated) under NPR1 antag: 2%
Value of NC1CCc2n[nH]c(=O)n2CC1 (configuration not stated) under NPR1 antag: 6%
Value of COc1ccc(CCC(=O)NCc2cc3n(n2)CCN(C(=O)N(C)C)C3)cc1 under NPR1 antag: -2%

Next section
SMILES	NPR1 antag
CN1C(=O)CC(C(=O)O)C12CCN(C(=O)NCCc1ccccc1F)CC2 (configuration not stated)	18%
O=C(Nc1ccccc1Cl)N1CC(c2nnc(-c3ccncc3)o2)C2(CCOCC2)C1 (configuration not stated)	-1%
O=C(c1cnc2c(c1)CCCC2)N1C[C@H](CO)C[C@H](CN2CCOCC2)C1	-1%
COCC(=O)N1CCc2nc(C)nc(NCc3cc(C)nn3C)c2CC1	2%
CCc1ccc(NC(=O)Cn2nc3c(cc2=O)CCCCC3)cc1	0%
CCOc1ncccc1CNC(=O)c1cc(S(N)(=O)=O)ccc1F	8%
COC(=O)c1ccc2nc(CO[C@H]3CN(C(C)C)C[C@H]3F)[nH]c2c1	-2%[70.6 µM]
O=C(Nc1cccnc1)O[C@H]1COCCN(c2nc3ccccc3s2)C1	-1%[70.6 µM]
CC(C)C[C@@H]1N[C@H](C(=O)NCCN(C)C)Cc2cn(CC3CC3)c3cccc1c23	-1%[70.6 µM]
COc1ccc(-c2noc([C@H](C)O)c2C(=O)NC(C)(C)C)cc1	0%[70.6 µM]
CC1CCN(c2ccc(CNC(=O)CC3=C4CCCCC4N(C)C3=O)cc2)CC1 (configuration not stated)	-4%
COc1ccc(C(=O)N[C@@H]2CCC[C@@H]2C(=O)NCCN(C)C)cc1	1%
CCN(CC)Cc1cnc2c(C(=O)N3CC[C@H]4CNC[C@H]43)cnn2c1	4%
CC(=O)N1CCN(c2nc3c(s2)CC(C(=O)Nc2cccc(C(C)(C)C)c2)CC3)CC1 (configuration not stated)	18µM*
O=C(NC1CCOCC1)c1ccc2c(c1)OCCN(c1cccc(OC(F)(F)F)c1)C2	?
CN1CC2(CCCN(CC3CC3)C2)c2cc(C(=O)NCCOc3ccccc3)ccc21 (configuration not stated)	-2%[70.6 µM]
COc1ccc(C(=O)Nc2nc3c(s2)C[C@@H]2[C@](C)(CO)[C@H](O)CC[C@@]2(C)[C@@H]3CC(=O)NCCNC(C)=O)cc1	-2%
O=S(=O)(NCC1CNCCOC1)c1ccc(F)c(F)c1F (configuration not stated)	9%
COCc1noc(CCNc2nc(C)nc3c2cnn3C)n1	5%
COCCN1C(=O)CC[C@]2(C(=O)Nc3ccccn3)CCCC[C@@H]12	1%
COc1ccc(-c2ncc(CN3CCOC(c4cccnc4)C3)cn2)cc1 (configuration not stated)	-22%
COCCCN(CCC(=O)NCc1ccc(F)cc1)C(=O)c1cc(C)oc1C	3%
C#CCN[C@@H]1C[C@@H]2c3[nH]c4ccccc4c3C[C@@H](C(=O)OC)N2[C@H](c2ccc(F)cc2)C1	-27%[70.6 µM]
CC(=O)N1CCN(Cc2snnc2C(C)C)CC(O)C1 (configuration not stated)	4%
CN1C(=O)CO[C@H](c2ccc(NC(=O)Nc3ccc(F)cc3)cc2)[C@H]1CO	-1%[70.6 µM]
SMILES	NPR1 antag
COCC(=O)NC1(Cc2cc(-c3ccc(OC)cc3)on2)COC1	4%[70.6 µM]
Cc1ccc2c(c1)N1C(=O)OC[C@@H]1CCN(C(=O)C1CC1)C2	-22%[70.6 µM]
Cc1nc(C)c(C(=O)N2CCC3(CC2)CC(N(Cc2ccccc2)C2CC2)CCO3)s1 (configuration not stated)	?
COc1cccc(CCC(=O)N2CCCC(CO)(CC3CC3)C2)c1 (configuration not stated)	4%
Cc1cnc(C2CC2)n1CCNC(=O)NC1CCCCC1	-1%
CCCN1CCN(C(=O)[C@H]2CCC[C@H]2NC(=O)c2ccc(OC)nc2)CC1	7%
O=C(Cc1ccccc1F)NC1CCN(c2cc(-c3cccs3)[nH]n2)C1 (configuration not stated)	-18%

This is a subset; count on the stated rates, not on these rows.
